High-throughput results (PubChem BioAssay)
GIV-Gai inh – inhibitors of GIV peptide binding to Galpha-i3, primary screen, biochemical, fluorescence polarization, FITC-GIV GBA peptide, rat Galphai3 | 90 min; active compounds read low; scaled: aluminum fluoride 0%, vehicle 100% | percent of control (FP), % (no concentration beside the values) | actives 0.42% (n = 210,000) | Guanine nucleotide-binding protein G(i) subunit alpha-3 (Rattus norvegicus), P08753 | AID 1224905, 2016;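 active means replicate mean at 85% of control or lower, very high polarization wells dropped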;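 further: wells of about 15 µL received 100 nL stock; the first replicate is given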
Target sequence (P08753 whole entry, looked up): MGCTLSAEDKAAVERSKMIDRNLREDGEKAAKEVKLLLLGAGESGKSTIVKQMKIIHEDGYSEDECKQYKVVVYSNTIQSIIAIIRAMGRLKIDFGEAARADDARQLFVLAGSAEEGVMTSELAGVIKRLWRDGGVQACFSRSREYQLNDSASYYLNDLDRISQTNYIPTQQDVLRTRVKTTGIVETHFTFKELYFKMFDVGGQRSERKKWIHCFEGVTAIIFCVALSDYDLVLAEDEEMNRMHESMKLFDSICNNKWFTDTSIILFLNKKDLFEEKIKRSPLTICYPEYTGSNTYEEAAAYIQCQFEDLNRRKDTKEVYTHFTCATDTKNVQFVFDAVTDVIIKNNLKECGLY
An asterisk follows results filed as active. Some of the compounds tested; count on the stated rates, not on these rows.

SMILES	GIV-Gai inh
CCOc1ccc(C2=C(Cl)C=C(c3ccc(C)cc3)c3ccccc3O2)cc1	112
CCN1CCN(S(=O)(=O)c2ccc(F)c(C(=O)Nc3c(F)cc(F)cc3Br)c2)CC1	106
Cc1[nH]c2c(Br)ccc3c2c1CCN1C(=O)OC(C)(C)C31C (configuration not stated)	108
Cc1cc(=O)oc2c3c(ccc12)O/C(=C\c1ccccc1[N+](=O)[O-])C3=O	117
CCCCN1CCN(Cc2nc3nc(C)cc(N4CCN(CC)CC4)n3n2)CC1	101
Cc1cc(C)c2c(c1)CC(C)(C)c1nc3cc(C)c(C)cc3nc1-2	104
Cc1cccc(-n2c(CNC(=O)c3ccco3)nnc2SCC(=O)Nc2nnc(C)s2)c1	108
O=[N+]([O-])c1ccc(Cl)c(S(=O)(=O)Nc2ccc3oc4c(c3c2)CCCC4)c1	109
CCCCC(SC1=Nc2ccccc2C2=NC(Cc3c[nH]c4ccccc34)C(=O)N12)C(=O)OCC (configuration not stated)	107
CN1/C(=c2/s/c(=C3\SC(=S)N(C4CCCCC4)C3=O)n(C3CCCCC3)c2=O)Sc2ccccc21	108
Cc1ccc2c(c1)c(-c1ccccc1)c(-c1ccccc1)n2CC(O)CN1CCCCC1 (configuration not stated)	115
Cc1nn(-c2ccc(Cl)cc2)c2sc(C(=O)Nc3ccc(F)cc3)cc12	97
CSC1=NC(=Nc2cccc(C)c2)C2(CCCC2)N1c1ccc(Br)cc1	104
CCOC(=O)c1c2n(c3cc(Br)c(OC)cc13)CCN(c1ccc(OC)cc1)C2	112
O=C(CSc1nnc2ccc(C(=O)Nc3cccc(F)c3)cn12)Nc1ccc(Br)cc1	107
O=C(NCc1ccccc1)c1ccc2nc3ccc(Cl)cc3c(=O)n2c1	98
CCN(Cc1ccc(Cl)cc1)Cc1cc(=O)n2nc(C(C)C)sc2n1	112
COc1ccc(-c2cn3cccc(C)c3n2)cc1Br	113
COC(=O)c1ccc(COc2ccc(C3C(C#N)=C(N)Oc4n[nH]c(C)c43)cc2OC)o1 (configuration not stated)	102
CC1(C)OC2OC(C(=O)Nc3ccccc3I)C3OC(C)(C)OC3C2O1 (configuration not stated)	104
CCCOC(=O)c1cccc(N2COc3ccc4c(C)cc(=O)oc4c3C2)c1	104
COc1ccc(N2CCN(c3cc(N(C)CCO)c([N+](=O)[O-])c4nonc34)CC2)cc1	111
COc1cc(C2C(N3C(=O)c4ccc([N+](=O)[O-])cc4C3=O)C(=O)N2c2ccc(Cl)cc2C)cc(OC)c1OC (configuration not stated)	105
Cc1cc2c(cc1S(=O)(=O)NC1CC1)N(C(=O)C1CCC1)CC2	98
COc1ccc(-n2ccc(=O)c(-c3nc(-c4cccc(Br)c4)no3)n2)cc1	100
NS(=O)(=O)c1ccc(CCNC(=O)c2ccc3c(=O)n(CCC4=CCCCC4)c(=S)[nH]c3c2)cc1	105
Cc1ccc(Cn2nc3n(CCC(=O)NC(C)C)c(=O)c4ccccc4n3c2=O)cc1	102
FC(F)(F)c1ccc2nc(-c3ccccc3)c(-c3ccccc3)nc2c1	123
O=C(NCc1c(-c2ccc(Cl)cc2)nc2n1CCS2)C1CCCC1	96
CCn1nnc2cc(-c3noc(CNC(=O)Cc4ccc(Cl)cc4)n3)ccc21	99
Cc1nc(-c2cc(S(=O)(=O)Nc3cccc(Br)c3)c(C)s2)cs1	109
CC(C)N1C(=O)CSc2cnn(CC(=O)NC3CCCC3)c(=O)c21	107
CCCCOC(=O)n1c(SCC(=O)OCC)nc2ccccc21	130
CC(C)c1ccc(C2OC3(C(=O)c4ccccc4C3=O)C3C(=O)N(c4cccc(C(F)(F)F)c4)C(=O)C23)cc1 (configuration not stated)	99
O=S(=O)(c1cc(-c2noc(C3CCC3)n2)cs1)N1CCc2ccccc2C1	98
CCc1cc(C2CCCN2C(=O)c2cc3nc(C4CC4)cc(C(F)(F)F)n3n2)on1 (configuration not stated)	98

Six compounds from above, ordered by formula weight, lowest first:
SMILES	GIV-Gai inh
CC(C)N1C(=O)CSc2cnn(CC(=O)NC3CCCC3)c(=O)c21	107
CCn1nnc2cc(-c3noc(CNC(=O)Cc4ccc(Cl)cc4)n3)ccc21	99
O=S(=O)(c1cc(-c2noc(C3CCC3)n2)cs1)N1CCc2ccccc2C1	98
Cc1ccc(Cn2nc3n(CCC(=O)NC(C)C)c(=O)c4ccccc4n3c2=O)cc1	102
Cc1nc(-c2cc(S(=O)(=O)Nc3cccc(Br)c3)c(C)s2)cs1	109
NS(=O)(=O)c1ccc(CCNC(=O)c2ccc3c(=O)n(CCC4=CCCCC4)c(=S)[nH]c3c2)cc1	105

The list continues.
SMILES	GIV-Gai inh
C=CCNc1nc(Nc2ccc(F)cc2)c2cnn(-c3ccccc3)c2n1	102
O=c1[nH]c(=S)[nH]c2c1C(c1cc([N+](=O)[O-])c(N3CCOCC3)cc1N1CCOCC1)O2 (configuration not stated)	103
Cc1nc(CN2C(=O)COc3ccc(S(=O)(=O)N4CCCCC4C)cc32)no1 (configuration not stated)	108
NC(=O)C1CCN(c2nc(-c3ccccc3F)nc3ccccc23)CC1	107
CCOc1cccc2c1OC(c1ccc(F)c(F)c1)N1N=C(c3ccc(OC)cc3)CC21 (configuration not stated)	109
O=C(c1nnc(-c2csc(S(=O)(=O)N3CCOCC3)c2)o1)N1CCCC1	103
COc1cc(NC(=O)c2ccc(-n3cnc(NC(C)=O)c3)cc2)cc(OC)c1	103
CC(=O)Nc1ccc(Nc2nc(C)cc(N3CCOCC3)n2)cc1	105
O=C(NC1CCCC1)c1csc(C(=O)N2CCCC2)n1	97
O=C(C1CCCN(c2ncc(-c3ccc(F)cc3)cn2)C1)N1CCC(N2CCCCC2)CC1 (configuration not stated)	110
O=C(CCCCCn1c(=S)[nH]c2ccc(Br)cc2c1=O)NCCc1c[nH]c2ccccc12	102
CC(=O)c1cccc(N2C(=O)/C(=C/c3ccc(-c4ccc([N+](=O)[O-])cc4)o3)C=C2c2ccccc2)c1	119
CCOC(=O)c1sc(NC(=O)c2ccc(C)c(S(=O)(=O)N3CCCCC3)c2)c(C(=O)OCC)c1C	99
Cc1[nH]nc2c1C(c1ccccc1OCc1cccc(Br)c1)C(C#N)=C(N)O2 (configuration not stated)	99
COc1ccc(-c2oc(NC(=O)C(F)(F)F)c(C#N)c2-c2ccc(OC)cc2)cc1	113
Cc1cc(C)c2c(n1)sc1c(=O)n(-c3ccc(C(=O)Nc4ccc(Br)cc4)cc3)cnc12	104
O=[N+]([O-])c1cc(S(=O)(=O)Nc2cc3c4c(oc3c3ccccc23)CCCC4)ccc1Cl	107
OC1(c2ccc(Cl)cc2)CN(c2ccccc2)C2=[N+]1CCS2 (configuration not stated)	104
N#CC1(C#N)[C@@H]2c3ccccc3C=CN2[C@@H](C(=O)C23CC4CC(CC(C4)C2)C3)[C@@H]1c1ccc(C(F)(F)F)cc1	103
C=C(C)CSc1nc2c(c(=O)n1C1CCOC(C)(C)C1)C1(CCCCC1)Cc1ccccc1-2 (configuration not stated)	101
O=C(Nc1cc(Cl)ccc1Oc1ccc2ccccc2c1Cl)c1cc(Br)cc(Br)c1O	105
COc1ccc2c(c1)C1(NC(=O)c3ccccc3N1)C(=O)N2 (configuration not stated)	128
CC(=O)C1=NN(c2ccccc2C)C2(S1)c1ccccc1C(c1ccc(Br)cc1)=NN2c1ccccc1 (configuration not stated)	108
CCOC(=O)C1CCN(C(=O)c2snc3c(=O)n(CC)c(=O)[nH]c23)CC1	99
COc1ccccc1C1/C(=C(\O)c2ccc(Br)cc2)C(=O)C(=O)N1c1cccc(C(F)(F)F)c1 (configuration not stated)	110
COc1ccc(-n2c(/C=C\c3ccc(F)cc3)nc3cc(OC)c(OC)cc3c2=O)cc1Cl	97
N#Cc1ccc(S(=O)(=O)N2CCC(N3CCOCC3)CC2)cc1	102
N#CC1(C#N)[C@@H]2c3ccccc3C=CN2[C@@H](C(=O)c2ccc(Cl)cc2)[C@@H]1c1cccc2ccccc12	121
O=[N+]([O-])c1ccc(NCCCO)cc1Sc1nc2ccccc2[nH]1	111
Cc1ccc([N+](=O)[O-])cc1NC(=O)/C(=C/c1cccc([N+](=O)[O-])c1)NC(=O)c1ccccc1Br	106
CCOc1ccc(NC(=O)c2ccc(F)c(S(=O)(=O)N3CCN(Cc4ccc5c(c4)OCO5)CC3)c2)cc1	116
O=C(CCc1nc(CSc2nnc(-c3cccnc3)o2)no1)Nc1ccc(F)cc1F	100
CCOc1cccc(-c2noc(-c3nn(-c4ccc(C)c(C)c4)ccc3=O)n2)c1	100
CCC(=O)Nc1nc(-c2ccc3c(c2)OCO3)nc2c1c(=O)oc1ccccc12	106
Cc1cc(C)c(C2=NON3N(C(=O)c4cc(Cl)cc(Cl)c4)c4ccccc4N23)c(C)c1	101
CC(=O)Nc1cc(-c2nc(-c3ccc(NS(C)(=O)=O)cc3)no2)ccc1C	103
CCOC(=O)c1nc(Nc2cccc(C)c2)c2c(C)c(C)n(-c3ccccc3)c2n1	98
O=C(NCc1ccc(S(=O)(=O)N2CCOCC2)s1)C1(c2ccccc2)CC1	100
COc1cccc(N2CCN(S(=O)(=O)c3cc(-c4nc(C)cs4)cs3)CC2)c1	104
O=C1CSC(c2cc3c(cc2[N+](=O)[O-])OCO3)N1c1ccc(F)c(Cl)c1 (configuration not stated)	105
COc1cc(OC)c(C2Nc3cccc4cccc(c34)N2)c(OC)c1	109
Cc1cc(Nc2cccc(F)c2)nc(N2CCOCC2)n1	102
Cc1ccccc1-n1c(SCc2cc(=O)n3cc(Br)ccc3n2)nc2[nH]ncc2c1=O	101
CCOC(=O)c1cccc(NC(=O)CCc2ccc3nc(CC)[nH]c3c2)c1	99
CCOc1ccc(N/C(SCc2ccc(Cl)cc2)=C(/C#N)C(=O)NCc2ccco2)cc1	97
O=C(Nc1ccc2c(c1)OCCO2)c1ccc(Oc2ccnc(-c3ccc(F)cc3)n2)cc1	102
COc1ccc(CC(=O)Nc2oc(-c3ccccc3)c(-c3ccccc3)c2C#N)cc1OC	111
Clc1c2ccccc2c(-c2nc(-c3ccc4sc5ccccc5c4c3)c(-c3ccccc3)[nH]2)c2ccccc12	115
CCn1nc(-c2csc(S(=O)(=O)N3CCC(C)CC3)c2)ccc1=O	105
COc1cc(Nc2nc(-c3nnn(-c4ccc(Cl)cc4)c3C)ns2)cc(OC)c1	103
COc1ccc(C2C3=C(CC(C)(C)CC3=O)NC3=C2C(=O)CC(C)(C)C3)cc1	103
O=C(CCCCCN1C(=O)C2C3c4ccccc4C(c4ccccc43)C2C1=O)OCC(=O)c1ccccc1 (configuration not stated)	104
COc1ccc(C2C(C#N)=C(N)Oc3n[nH]c(C)c32)cc1OCc1ccc(C(=O)OCC(C)C)cc1 (configuration not stated)	115
COc1ccc(OC)c(C2C3=C(CC(C)(C)CC3=O)Nc3ncnn32)c1 (configuration not stated)	104
CC(=O)Oc1ccc(C2Nc3c(C(=O)O)ccc([N+](=O)[O-])c3C3C=CCC32)cc1 (configuration not stated)	110
CCc1csc(-c2ccc(S(=O)(=O)NCCN3CCC(C)CC3)s2)n1	103
O=C(Nc1ccc(F)cc1)/C(=C\c1ccc2c(c1)OCO2)NC(=O)c1ccccc1Br	114
O=S(=O)(Nc1cccc(-c2nnc(Cc3ccc4c(c3)OCO4)o2)c1)c1ccc(F)cc1	103
CCc1nc(CN2C(=O)COc3ccc(S(=O)(=O)NC4CCCCC4)cc32)no1	102
Cc1nnc(-c2csc(S(=O)(=O)Nc3cccc(Cl)c3)c2)o1	106

Rewritten with each value named: two of the compounds above.
CCn1nc(-c2csc(S(=O)(=O)N3CCC(C)CC3)c2)ccc1=O
  GIV-Gai inh = 105
COc1cc(Nc2nc(-c3nnn(-c4ccc(Cl)cc4)c3C)ns2)cc(OC)c1
  GIV-Gai inh = 103

Taken from above.
CCn1nc(-c2csc(S(=O)(=O)N3CCC(C)CC3)c2)ccc1=O in GIV-Gai inh: 105
COc1cc(Nc2nc(-c3nnn(-c4ccc(Cl)cc4)c3C)ns2)cc(OC)c1 in GIV-Gai inh: 103
CCc1nc(CN2C(=O)COc3ccc(S(=O)(=O)NC4CCCCC4)cc32)no1 in GIV-Gai inh: 102
COc1ccc(C2C3=C(CC(C)(C)CC3=O)NC3=C2C(=O)CC(C)(C)C3)cc1 in GIV-Gai inh: 103
O=C(Nc1ccc(F)cc1)/C(=C\c1ccc2c(c1)OCO2)NC(=O)c1ccccc1Br in GIV-Gai inh: 114

(cont.)
SMILES	GIV-Gai inh
O=C(Nc1ccc2c(c1)OCO2)c1nnc(C2CCN(C(=O)C3CC3)CC2)s1	101
CCn1c(=O)c(=O)n(CC)c2cc(S(=O)(=O)c3ccc(F)cc3)c(NC(C)=O)cc21	100
CN(C)C(=O)C1CC(=O)N(C2CCCCCC2)C1 (configuration not stated)	97
Cc1c2c3c(cccc3n1C)C1(C)N(CC2)C(=O)OC1(C)C (configuration not stated)	107
COc1ccc(C(=O)CN2C3=NCCCN3c3ccccc32)cc1	108
COc1ccccc1N1CCN(C(=O)CSc2nccc3c2ccn3Cc2ccc(C)cc2)CC1	103
N#CC1=C(NC(=O)CCl)c2ccccc2CC12CCCCC2	108
C=CCn1c(SCC(=O)Nc2cc(OC)ccc2OC)nc2sc3c(c2c1=O)CCCC3	101
CC(C(=O)NCC1(c2ccccc2)CCCC1)N1CCCC1 (configuration not stated)	111
CC(C)c1ccc(C#N)c(SCC(=O)Nc2cccc(C(=O)O)c2)n1	107
COc1ccc(C2(N3CCCC3)Oc3ccccc3C(C#Cc3ccccc3)=C2C)cc1 (configuration not stated)	106
Cc1ccc(NC(=O)CCc2nc(CSc3n[nH]c(-c4ccccc4)n3)no2)cc1Cl	105
O=S(=O)(c1cccc(Cl)c1)N1CCN(Cc2nc3cccnc3n2-c2ccccc2)CC1	107

Molecules listed so far containing a COOH group:
SMILES	GIV-Gai inh
CC(=O)Oc1ccc(C2Nc3c(C(=O)O)ccc([N+](=O)[O-])c3C3C=CCC32)cc1 (configuration not stated)	110
CC(C)c1ccc(C#N)c(SCC(=O)Nc2cccc(C(=O)O)c2)n1	107
